Source: PubChem (several laboratories)
ugtP null kill: growth inhibition of S. aureus ugtP deletion strain. S. aureus RN4220 ugtP deletion, OD600 growth, 16 h; some inactives read as strong as hits. growth inhibition, % (no concentration beside the values). 330,000 compounds, 0.54% hits. AID 1259309;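 active = z-score under -3 and OD600 up to 0.15 on both plates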;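 also: plate controls were untreated wells for no effect and antibiotic for full effect; wells of about 80 µL received 100 nL stock; the first replicate is given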
Mtb hypoxia rep: Mtb hypoxia fluorescent reporter inhibition; M. tuberculosis hypoxia-regulated fluorescent reporter, fluorescence; fluorescence inhibition, % (no concentration beside the values); 300,000 compounds, 0.1% hits;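 active = 35 to 45% if threefold the growth effect, above 45% if 1.5-fold the growth effect; inactive = the rest, general growth blockers included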;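 also: wells of about 50 µL received 100 nL stock; 0% = vehicle wells and 100% = reference inhibitor wells; whole bacteria with a GFP reporter of the hypoxia response; strong numbers were not always called active; many hits fall short of the cut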
Sa RN4220 lethal: S. aureus RN4220 growth inhibition. OD600, 16 h. inhibition, % (test concentration not listed). 330,000 compounds, 0.33% hits. AID 1259311;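 active = z-score of -3 or lower and OD600 up to 0.18 on both plates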;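 also: plate controls were untreated cells for no effect and reference antibiotic for full effect; stock transfer was 100 nL into about 80 µL; one replicate is shown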
Autofluor counter: counter-screen for toxin protease inhibitors: compound fluorescence; fluorescence intensity (no concentration beside the values); compound autofluorescence counterscreen, microsphere flow cytometry; active compounds read high; 360,000 compounds, 3.1% hits;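 active = at least 3 SD above the mean of all compounds, about 16000 in these data; inconclusive = too few beads counted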;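 also: 100 nL of 1 mM stock went into each well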
BJeLR lethal: kills HRASV12-expressing BJeLR cells; BJeLR (HRASV12) viability, CellTiter-Glo ATP luminescence, 48 h; reference of the scale not given here; inhibition, % (test concentration not listed); 300,000 compounds, 0.17% hits;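 active = replicate mean above 50%; inconclusive = above 50% but judged a plate artefact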;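 also: 50 nL library stock added to about 25 µL; numbers are from one replicate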
PrP UTR inh: inhibition of PrP 5' UTR reporter expression | 340,000 compounds, 0.35% hits | AID 488862 | inhibition, % (test concentration not listed) | cell-based PrP 5' UTR mRNA reporter, plate reader;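 active = every replicate at 50% or more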;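 also: 0 = median of the neutral control wells; tested in H4 reporter cells; numbers are from one replicate; inactives centre near -14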
Mtb hypoxia rep growth: further read-out of Mtb hypoxia rep, marked with its call; growth inhibition, %; measured here: M. tuberculosis growth (absorbance);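 0% = vehicle and 100% = reference antibiotic; read after six days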
Active calls of the source: *; ? = inconclusive; nt = not tested or not shown.

SMILES | ugtP null kill | Mtb hypoxia rep | Mtb hypoxia rep growth | Sa RN4220 lethal | Autofluor counter | BJeLR lethal | PrP UTR inh
O=C(OCC(O)CO)c1ccccc1Nc1ccnc2cc(Cl)ccc12 (stereo unspecified) | -5 | 16 | 2 | 2.1 | 5871 | nt | -8
Cc1c(C(=O)Nc2ccccc2-c2ccccc2)cccc1[N+](=O)[O-] | -6 | 8 | 15 | 2.4 | 20236* | -5 | -10
Cc1ccc(CSc2nc3c(c(=O)[nH]2)C(c2ccncc2)C2=C(CCCC2=O)N3)cc1 (stereo unspecified) | 9 | 1 | 1 | -0.4 | ? | 1 | -13
COCC(C)NC(=O)COc1ccc(Cl)cc1Cl (stereo unspecified) | 2 | 3 | 1 | 1.4 | 6362 | 2 | -14
Cc1noc(C)c1S(=O)(=O)N1CCCC(C(=O)NCC2CCCO2)C1 (stereo unspecified) | -8 | nt | nt | -3.3 | 4895 | -2 | -8
CN(C)/C=N/c1nc2nccc(-c3cccc(Cl)c3)n2n1 | nt | nt | nt | nt | 4848 | -1 | -19
CCN(c1ccccc1)S(=O)(=O)c1ccc(C(=O)Nc2cc(C)ccn2)cc1 | -4 | 5 | -4 | 3.4 | 8139 | nt | -14
O=C(CSc1nncs1)Nc1cc(S(=O)(=O)N2CCOCC2)ccc1N1CCCC1 | 3 | 9 | -5 | 1.7 | ? | nt | -7
O=C(CN1CCC(n2nnc3cc(F)ccc32)CC1)NC1CC1 | 12 | 9 | 4 | 4.8 | 3194 | -9 | -15
C/C(=N\NC(=O)CN1CCN(S(=O)(=O)c2ccc(C)cc2)CC1)c1ccncc1 | nt | nt | nt | nt | 4324 | -11 | -14
Cc1cc(C)c(S(=O)(=O)N(C)CC(=O)NCCCn2ccnc2)c(C)c1 | 6 | 2 | 10 | 1.5 | 4424 | 4 | -4
CC(C)CCn1cnc2c(NCc3ccccc3)ncnc21 | -6 | 9 | 10 | -0.9 | 24204* | -6 | -31
CS(=O)(=O)c1ccc(C(=O)N(CCc2ccccc2)Cc2ccccc2)cc1 | -4 | 0 | 4 | -1.1 | ? | 9 | -37
COCCN(Cc1ccccc1)C(=O)C1CCN(S(=O)(=O)c2ccc3c(c2)OCCO3)CC1 | 1 | 0 | -1 | 1.6 | 8567 | nt | -23
CCCc1nc(NCc2ccncc2)c2nnn(Cc3ccccc3F)c2n1 | -8 | 12 | 2 | 3.5 | 3903 | 1 | -8
Cc1ccc2c(C)c(C(=O)N3CCN(Cc4ccc5c(c4)OCO5)CC3)oc2c1C | 3 | 6 | 1 | 3.1 | 4781 | 1 | -29
COc1cc(/C=C2/NC(=O)NC2=O)cc(Br)c1OCc1cccc(C(=O)O)c1 | 5 | 15 | 1 | 7.8 | 2789 | 4 | -26
CS(=O)(=O)N1CCN(c2ncnc3c2cnn3-c2ccccc2)CC1 | 6 | 4 | 0 | 5.8 | 3239 | -6 | 55*
O=C(NC1CCCC1)C1CCN(C(=O)c2cccc(Cl)c2)CC1 | 7 | 11 | 4 | 5.9 | 3108 | -1 | -17
O=S(=O)(O)c1cc(OS(=O)(=O)c2ccccc2)cc2ccccc12 | 7 | -6 | 0 | 7.0 | 3939 | 2 | -23
CCC(C(=O)NC1CCCC1)N(C(=O)Cn1nnc(-c2ccc(C)cc2)n1)C1CCCC1 (stereo unspecified) | -9 | 5 | 6 | -7.5 | 3169 | 9 | -5
Cc1cc(S(=O)(=O)n2cnc3ccccc32)c(C)cc1Cl | 1 | nt | nt | 4.9 | 4715 | 15 | -12
C[C@H](NC(=O)c1nc[nH]c1C(=O)N[C@@H](CCCCNC(=O)OC(C)(C)C)C(=O)OC(C)(C)C)C(=O)OCc1ccccc1 | nt | nt | nt | nt | 2888 | 0 | -10
C#CCSc1nc2[nH]ncc2c(=O)[nH]1 | 14 | 6 | -3 | -2.0 | 2454 | -5 | 11
Cc1cc(N2CCN(C3CCCCC3)CC2)n2nc(C)nc2n1 | 6 | nt | nt | 1.5 | 6000 | -7 | -13
COc1cc(SC)ccc1C(=O)OCC(=O)NC1CC1 | 2 | 4 | 3 | 6.0 | 3273 | 4 | -12
CCCN(C(=O)C1CC(=O)N(c2ccccc2C(C)CC)C1)C1CCS(=O)(=O)C1 (stereo unspecified) | 2 | 3 | -3 | 2.0 | 3409 | nt | -11
Cc1nn(C)cc1CNC(=O)c1ccc(Br)o1 | -3 | 0 | 9 | 6.0 | 20359* | 14 | -40
C/C(=N/NC(=O)c1cccc(C)c1)c1c(O)cc(C)oc1=O | nt | nt | nt | nt | 3352 | -4 | -21
COc1ccc(OC)c(C=NNC(=O)c2ccc(COc3ccc(C)cc3[N+](=O)[O-])o2)c1 | -7 | 3 | 5 | 0.3 | nt | nt | nt

Entries of single compounds, looked up by structure. Values in the order: ugtP null kill, Mtb hypoxia rep, Mtb hypoxia rep growth, Sa RN4220 lethal, Autofluor counter, BJeLR lethal, PrP UTR inh
Cc1nn(C)cc1CNC(=O)c1ccc(Br)o1 across the screens: -3, 0, 9, 6.0, 20359*, 14, -40
Cc1cc(N2CCN(C3CCCCC3)CC2)n2nc(C)nc2n1 across the screens: 6, nt, nt, 1.5, 6000, -7, -13

Continued.
SMILES | ugtP null kill | Mtb hypoxia rep | Mtb hypoxia rep growth | Sa RN4220 lethal | Autofluor counter | BJeLR lethal | PrP UTR inh
COC(=O)c1scc(C)c1S(=O)(=O)Nc1ccc(C)cc1 | 5 | nt | nt | 2.2 | 6351 | 0 | -16
C/C(N)=C(/C#N)C(=O)CSc1nnc(-c2ccccc2Br)o1 | -10 | nt | nt | -0.7 | 4690 | 3 | -65
COc1ccccc1OCC(=O)N/N=C/c1c(O)ccc2ccccc12 | nt | nt | nt | nt | 6218 | 31 | 13
Cc1ccc(C)c(-n2nnnc2SCC(=O)NCCC2=CCCCC2)c1 | -2 | 7 | 6 | 4.2 | 16990* | -10 | -41
C=CCNC(=O)c1cc(Cl)ccn1 | -2 | 9 | 1 | 1.8 | 2071 | -2 | -16
CC1=Nc2cc(C(=O)O)ccc2Sc2ccc(C)cc21 | 15 | 10 | 1 | 7.3 | 4476 | 2 | -1
CCCC/C(O)=C1\C(=O)CCCC1=NCCc1c(C)[nH]c2ccccc12 | 9 | 11 | 13 | 4.4 | 3936 | 0 | 0
Cc1c(C#N)c2ncn(Cc3ccccc3)c(=O)c2n1-c1ccccc1 | 0 | nt | nt | 0.4 | 5219 | 0 | -18
Cc1ccc(/C=C/C(=O)NC(=S)Nc2ccc(S(=O)(=O)Nc3cc(C)on3)cc2)cc1 | 2 | 8 | 5 | 8.0 | 4717 | -8 | -22
COCCN(Cc1cc2cc3c(cc2nc1Cl)OCO3)C(=O)Nc1ccccc1OC | -4 | 1 | -1 | -3.2 | 4459 | 8 | 11
Cn1cccc1CC(=O)N/N=C\c1cccs1 | nt | nt | nt | nt | 3020 | 1 | -15
COc1ccccc1N(CC(=O)NC1CCCCC1)C(=O)c1cnn(C(C)C)c1 | 2 | 7 | 1 | 0.3 | 15498 | -6 | -23
O=C(O)c1cc(-c2ccc(/C=N/N3C(=O)C4C5C=CC(C6CC56)C4C3=O)o2)ccc1Cl (stereo unspecified) | nt | nt | nt | nt | 4399 | 0 | -64
O=S(=O)(Nc1ccc2c(c1)OCO2)c1ccc(Cl)cc1F | -6 | -12 | 0 | -0.9 | 3807 | nt | 3
CCc1cc2c(=O)c(-c3nc4ccccc4[nH]3)coc2c(CN2CCCCC2)c1O | 0 | 4 | 5 | 7.4 | 4447 | 4 | -45
O=C(NCc1ccccc1)C1CCCN(S(=O)(=O)c2cccnc2)C1 (stereo unspecified) | 3 | nt | nt | 1.9 | 3045 | 8 | -6
CCOC(=O)N/N=C/c1c(C)c(C(=O)c2ccc(F)cc2)n2ccccc12 | nt | nt | nt | nt | 4005 | 8 | -19
COc1ccc(N2C(=O)CS/C2=C\[N+](=O)[O-])cc1 | -7 | 7 | 4 | -4.7 | 15304 | 0 | 13
COc1ccc(CNC(=O)c2coc(=O)c3ccccc23)cc1 | 4 | -2 | 3 | 4.8 | 3401 | nt | -27
CC(CCc1ccccc1)NC(=O)COc1ccc(S(=O)(=O)N2CCOCC2)cc1[N+](=O)[O-] (stereo unspecified) | 4 | 4 | 17 | -0.1 | 9902 | 14 | -51
CC(=O)Nc1ccc(S(=O)(=O)N2CCC(c3nnc(-c4ccc(C)cc4)o3)CC2)cc1 | -6 | -5 | 12 | -5.6 | 6135 | -5 | -11
Oc1ccc(NC(=S)N=Nc2c(O)[nH]c3ccccc23)cc1 | -20 | -7 | -5 | 5.3 | 4129 | -1 | -33
COc1cccc(NC(=O)Nc2ccncc2)c1 | 3 | 4 | 7 | -1.3 | 2558 | 0 | -12
Cc1cc(-c2ccccc2)nc(N/N=C/c2ccc([N+](=O)[O-])cc2)n1 | nt | nt | nt | nt | 2133 | -6 | -35
CC(C)c1ccc(S(=O)(=O)N2CCCCC2)cc1 | 7 | 24 | 5 | 7.1 | 2200 | -4 | -14
CCC(=O)Nc1cccc(Br)c1 | -1 | 9 | 2 | 6.8 | nt | -5 | -14
CCCCNS(=O)(=O)c1ccc2nc(-c3cccnc3)cc(C(=O)NCCCOCC)c2c1 | 4 | 11 | 2 | 3.0 | nt | -4 | nt
Cn1c(SCC(=O)c2ccc3c(c2)NC(=O)CO3)nc2ccccc21 | 8 | 3 | 8 | 5.8 | 4068 | 4 | -20
Cc1ccc(-c2nn(Cc3ccccc3)cc2C(=O)N2CCN(c3ccccn3)CC2)cc1 | 1 | 2 | -2 | 3.4 | 8682 | nt | -13
O=C(CN(CCc1ccccc1)Cc1ccccc1)Oc1ccccc1P(=O)(O)O | 6 | 0 | -3 | 0.4 | 4034 | -1 | -3
CCCCOC(=O)CSCC(=O)Nc1cc(C)on1 | 1 | 6 | 9 | 3.4 | 10048 | 2 | -13
CCn1c(Cc2ccccc2)nnc1SCC(=O)Nc1ccc(C)cc1 | 2 | -5 | 13 | -1.3 | 6722 | 0 | -31
CCOC(=O)c1cc(-c2ccc(Cl)s2)nc2c1c(C)nn2C | -14 | -7 | -2 | -8.6 | nt | 4 | nt
CC1(C)C2SCC(=O)N2CCN1CC(=O)NN (stereo unspecified) | 5 | 11 | 7 | 2.2 | 4268 | 9 | -27
COC(=O)c1c(NC(=O)CSc2ncnc3ccccc23)sc(C)c1C | 15 | 11 | 8 | 2.1 | 4308 | 4 | -8
CNC(=O)/C=C/c1cc(C(=O)c2ccc(Cl)cc2Cl)cn1C | -3 | 16 | -4 | 4.3 | 3778 | -3 | -16
C=CCc1cccc(/C=C/c2cc(=O)c3ccccc3[nH]2)c1O | 9 | 1 | 4 | -2.2 | 2465 | 2 | -14
O=C1NCCN1C(=O)c1ccccc1F | 1 | 16 | 9 | -0.6 | 10292 | 11 | -21
C=CCNC(=O)c1cccc(OC2CCN(CC(C)(C)C)CC2)c1 | 6 | 2 | 3 | 3.5 | 4242 | -3 | -64
Cn1nnnc1Sc1ncnc2scc(-c3cccc4c3sc3ccccc34)c12 | -2 | -3 | 7 | 1.6 | 3364 | nt | 2
CC(C)[C@H](NC(=O)[C@H](CCCN=C(N)N)NC(=O)NC(Cc1ccccc1)C(=O)O)C(=O)NC(C=O)CCCN=C(N)N (stereo partly specified) | nt | nt | nt | nt | 5561 | -5 | -13
CCN(CC(=O)Nc1ccc(C(C)=O)cc1)CC(=O)Nc1cccc(OC)c1 | -1 | 0 | 9 | 1.0 | 3972 | 3 | -29
Cc1cccc(NS(=O)(=O)c2cc3c4c(c2)CC(=O)N4CCC3)c1C | -1 | 8 | 9 | 4.0 | 4369 | 5 | -4
CN1C(=O)NC(NC(=O)c2ccncc2)(C(F)(F)F)C1=O (stereo unspecified) | -1 | 4 | -3 | 0.3 | 15175 | 6 | -9
CC(=NNC(=O)Cc1c(C)[nH][nH]c1=O)c1ccc(O)cc1 | 0 | -6 | -2 | 3.8 | nt | nt | nt
S=C(Nc1ccc(Oc2ccccc2)cc1)N1CCOCC1 | 9 | 14 | 1 | 3.5 | 4319 | 2 | -16
O=C(NCCc1ccccc1)N1CCCC(CNS(=O)(=O)Cc2ccccc2)C1 (stereo unspecified) | -13 | 5 | 16 | -4.5 | 3332 | 8 | -11
COc1ccc(-c2c(C#Cc3ccsc3)c3cc(-c4cccc5[nH]ccc45)ccc3n2C)cc1 | -4 | 4 | 9 | 4.9 | 3880 | nt | -32
